Rango dissoc inh = qHTS Assay for Inhibitors of RanGTP induced Rango (Ran-regulated importin-beta cargo) - Importin beta complex dissociation. Biochemical FRET Rango-importin beta, RanGTP-induced dissociation. Potency, µM (top dose mostly 46.1 µM), without a hit: at the top dose activity change, negative = inhibition. 0.071% of 340,000 active; active means falling FRET ratio curve, often poorly fitted, with flat reads before Ran was added; inconclusive means other falling curves, or compound fluorescence or quenching; inactive means flat or rising ratio curve;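 further: potency means the concentration at half of the fitted maximal effect; % of control where 0% means no effect; nearly all actives have a fitted effect of over 45% in size; -100% = wells without RanGTP and RCC1; the record marks most hits as doubtful in a second field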
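Quantitative HTS using a FRET biosensor: 0.1 uM Rango, 0.25 uM importin beta, 0.6 uM Ran, 2 mM GTP, 0.2 uM RCC1 final, PBS with DTT, Tween-20 and BSA. Post-read taken 45 min after Ran addition.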
miR-21 FLuc = qHTS Assay for Modulators of miRNAs and/orActivators of miR-21; 340,000 tested, under 10 active; AID 2288, 2010; Potency, µM (doses to about 38.3 µM), for inactives: at the top dose reporter change, positive = more light; HeLa miR-21 FLuc reporter, luciferase, 48 h; active = well fitted rising curve with a large enough effect; inconclusive = small, poorly fitted or top-dose-only effect; inactive = no such curve, though single readings can be large or run the other way;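 further: % of control where 0% means no effect; miR-21 action dims this reporter so a rising signal means less miR-21 action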
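Using DMEM plus 10% FBS, HeLa miR-21-FLuc cells are incubated with test compounds (final up to about 40uM) for 48 hours; firefly luciferase signal is then imaged following reagent-mediated lysis.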
Rango-impB inh = qHTS Assay for Inhibitors of Rango (Ran-regulated importin-beta cargo) - Importin beta complex formation. Importin subunit beta-1 (Homo sapiens), Q14974. Rango CFP/YFP FRET sensor + importin beta, 45 min. AID 540263, 2011. Potency, µM (doses to about 92.2 µM), without a hit: top-dose inhibition of complex formation. 0.031% of 340,000 active; active = rising FRET ratio curve, often small or poorly fitted; inconclusive = mostly compound fluorescence or quenching in the first reads; inactive = flat curves in all reads;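 further: potency means the concentration at half of the fitted maximal effect; 0% = DMSO wells and 100% = buffer wells lacking importin beta; nearly all actives have a fitted effect of over 15% in size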
Target sequence (Q14974 whole entry, looked up): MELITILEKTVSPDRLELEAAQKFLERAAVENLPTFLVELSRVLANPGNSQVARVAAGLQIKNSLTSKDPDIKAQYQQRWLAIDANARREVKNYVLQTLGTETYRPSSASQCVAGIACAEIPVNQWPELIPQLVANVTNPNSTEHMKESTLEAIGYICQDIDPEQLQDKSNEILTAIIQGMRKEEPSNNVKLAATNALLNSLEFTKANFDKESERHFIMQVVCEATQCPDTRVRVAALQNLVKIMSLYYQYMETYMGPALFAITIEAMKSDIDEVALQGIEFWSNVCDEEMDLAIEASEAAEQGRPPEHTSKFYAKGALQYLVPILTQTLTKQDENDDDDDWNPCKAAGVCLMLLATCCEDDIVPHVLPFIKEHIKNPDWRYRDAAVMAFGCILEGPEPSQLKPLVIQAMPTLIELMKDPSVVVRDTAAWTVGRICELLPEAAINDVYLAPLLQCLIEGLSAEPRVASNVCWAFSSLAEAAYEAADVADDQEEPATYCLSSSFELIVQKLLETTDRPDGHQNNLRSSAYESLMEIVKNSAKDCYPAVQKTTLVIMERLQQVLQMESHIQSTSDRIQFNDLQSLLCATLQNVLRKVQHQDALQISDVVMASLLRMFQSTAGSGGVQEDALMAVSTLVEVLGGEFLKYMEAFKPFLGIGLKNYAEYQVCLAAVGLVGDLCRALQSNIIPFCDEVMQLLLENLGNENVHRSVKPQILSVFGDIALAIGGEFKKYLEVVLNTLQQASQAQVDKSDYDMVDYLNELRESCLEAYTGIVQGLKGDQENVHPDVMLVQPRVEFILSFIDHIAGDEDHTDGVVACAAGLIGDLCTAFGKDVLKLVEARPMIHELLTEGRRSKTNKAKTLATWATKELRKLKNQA
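FRET biosensor Rango (snurportin 1 IBB between N-terminal EYFP and C-terminal Cerulean), 50 nM in PBS/1 mM DTT/0.02% Tween-20/0.1% BSA, preincubated 5 min RT with compound; 0.125 microM importin beta added, 45 min RT, CFP/YFP FRET ratio read.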
GLA inh pH 4.5 = qHTS Assay for Inhibitors of Human alpha-Galactosidase at pH 4.5; Alpha-galactosidase A (Homo sapiens), P06280; purified enzyme, 4-MU-alpha-Gal fluorescence, pH 4.5; activity change, negative = inhibition, % at 105 µM; 230,000 tested, under 10 active; inconclusive = small, poorly fitted or top-dose-only inhibition, or a rising curve; inactive = flat fitted curve, though single readings scatter; no compound was filed as active;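 further: 0% = full activity with enzyme and -100% = basal without enzyme; dose as in the result columns while the protocol names 77 µM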
An asterisk follows results filed as active; ? = inconclusive; . = not tested or not shown; & = joins results of further samples.

Under each structure: Rango dissoc inh, miR-21 FLuc, Rango-impB inh, GLA inh pH 4.5
- COc1ccccc1NC(=O)C(=O)NCC(c1ccco1)N1CCc2ccccc21 (stereo unspecified)
 : 13%, ., 2.8%, .
- Cc1ccc(C(=O)Nn2cnnc2)cc1[N+](=O)[O-]
 : -8%, ., -0.2%, .
- O=C(O)c1nn(-c2ccc(Cl)cc2)ccc1=O
 : -2%, 1%, 3.7%, -7
- CCN(CC)CCNC(=O)c1ccc(NC(=O)c2cc(-c3ccncc3)nc3ccccc23)cc1
 : -4%, ., ?, .
- CCn1cc([N+](=O)[O-])c(C(=O)NCc2ccc(Cl)cc2)n1
 : 9%, 1%, 2.3%, 16
- C=CCN(C#N)c1nc(OC)nc(N2CCCC2)n1
 : 9%, -9%, -1.2%, 2
- CCn1nnc2cc(C(=O)O)ccc21
 : -4%, -6%, 0.4%, -11
- Cc1occc1C(=O)NN=C1C2CC3CC(C2)CC1C3
 : -1%, -66%, 1.6%, -2
- CCn1c(SCC(=O)N2CCCCC2)nc(O)cc1=O
 : 8%, -5%, -0.4%, 4
- CCN(CCNC(=O)CC1Oc2ccccc2NC1=O)c1ccccc1 (stereo unspecified)
 : -2%, -4%, ?, 0
- NS(=O)(=O)c1ccc(CCNS(=O)(=O)c2ccc(Cl)cc2)cc1
 : 0%, 0%, 2.9%, .
- C=CCN1C(c2ccccc2)=CS/C1=C(/C#N)c1nnc(N2CCOCC2)n1-c1ccccc1
 : -8%, -3%, 0.1%, 1
- CC(=O)c1cccc(NC(=O)C2CC(=O)N(Cc3ccccc3)C2)c1 (stereo unspecified)
 : 11%, 1%, -2.7%, 4
- O=C(Nc1ccon1)Nc1ccc(F)cc1F
 : -7%, -5%, 0.6%, .
- COc1cccc(-c2c(C#N)c(SC)nc3cc(C)nn23)c1
 : 7%, 3%, -0.5%, -3
- Cc1ccc(C)c(N2CCN(C(=O)C3CCN(c4nc(C)cc(C)n4)CC3)CC2)c1
 : 14%, 8%, -1.0%, -7
- O=C(c1cccc(Br)c1)N1CCN(S(=O)(=O)N2CCOCC2)CC1
 : 4%, -2%, -0.2%, -9
- COC(=O)c1cc(NC(=O)CN2C(=O)C(=O)N(C3CCCC3)C2=O)cc(C(=O)OC)c1
 : 1%, ., -4.1%, .
- Cc1cc(C)n(-c2cc(Oc3ccccc3)ncn2)n1
 : 24%, -19%, 4.5%, -20
- COc1ccc(/C=C2\SC(=S)N(CCC(=O)Nc3ccccc3C(=O)O)C2=O)cc1
 : 10%, -4%, -2.3%, .
- CCCCCCCCNCCS(=O)(=O)NN1CCOCC1
 : -5%, ., 1.2%, .
- O=C(Nc1cccc(Cl)c1)c1nc[nH]c1C(=O)NCCCCNC(=O)c1[nH]cnc1C(=O)Nc1cccc(Cl)c1
 : 1%, ., 5.6%, .
- O=C(Nc1cccc(-c2nc3ccccc3[nH]2)c1)c1ccco1
 : 9%, -11%, 4.3%, 4
- CCOC(=O)c1ccc(CC2S/C(=C(\C#N)C(C)=O)NC2=O)cc1 (stereo unspecified)
 : ?, -22%, ?, 1
- Clc1ccc2c(NNc3ccccc3Cl)ccnc2c1
 : 2%, -6%, 4.0%, 3
- CCOCCCn1c(=S)[nH]c2cc(C(=O)N3CCN(C4CCCCC4)CC3)ccc2c1=O
 : -15%, 3%, -0.4%, .
- COc1ccc(CNC(=O)C/C(C)=N/NC(=O)c2ccc(OC)cc2OC)cc1
 : 17%, -17%, 2.9%, .
- O=C(CSc1nccn1Cc1ccccc1)NC1CCCC1
 : 17%, -9%&-13%, 0.6%, .
- CN1OC[C@@H]2CN(Cc3cc(Cl)cc(Cl)c3)[C@H](c3cccc(Br)c3)C[C@@H]21
 : -13%, ., -0.7%, .
- Cc1ccc(NC(=O)/C=C\C(=O)O)c([N+](=O)[O-])c1
 : 1%, -7%, 3.6%, -5
- COc1ccc(C2CCN(CC(=O)N(C)C)CC2O)cc1 (stereo unspecified)
 : -3%, 0%, -1.6%, 6
- Cc1cc(C)cc(C(=O)NCC(=O)OCC(=O)Nc2ccc(C)cc2Br)c1
 : 18%, -4%, 1.2%, 8
- Cc1c(Cl)cccc1NC(=S)N1CCOCC1
 : -4%, 0%, -0.3%, 4
- COc1ccccc1N1CCN(C(=O)c2ccncc2)CC1
 : 14%, -1%, -3.3%, 0
- COc1ccc2c(C)cc(SCC(=O)Nc3cccnc3Cl)nc2c1
 : -5%, 0%, 0.7%, 5
- O=C(CSc1nnc(-c2ccncc2)n1Cc1ccco1)N1c2ccccc2Sc2ccc(Cl)cc21
 : -5%, 3%, 0.2%, -10
- Cn1c(=O)[nH]c(=O)c2c1nc(N1CCN(c3cccc(Cl)c3)CC1)n2CCCc1ccccc1
 : ., -6%, ., -5
- COC(=O)CSc1nnc(-c2ccco2)n1Cc1ccco1
 : 7%, -1%, 0.1%, 5
- O=C(CC(=O)c1ccccc1)Nc1ccc2c(c1)OCCO2
 : 10%, -37%, 8.1%, -4
- CC(C)N(Cc1ccccc1)C(=O)COC(=O)c1ccccc1SCC(=O)N1CCCC1
 : 5%, ., -1.8%, .
- CC(C)OC(=O)c1c(NC(=O)c2cnn3c2NC(c2ccccc2)CC3C(F)(F)F)sc2c1CCCC2 (stereo unspecified)
 : -5%, -5%, 0.0%, 5
- COc1ccc(/C=C/C(=O)O/N=C(\N)c2ccccc2)cc1OC
 : 6%, -71%, 4.2%, 4
- Cc1cc(C)n(-c2nc3c(c(=O)[nH]c(=O)n3C)n2Cc2ccccc2)n1
 : -16%, -6%, ?, -9
- OCCN(CC#CCn1c2ccccc2c2ccccc21)CCO
 : 3%, -9%, -0.1%, -2
- O=C(c1ccco1)N1CCN(C(=O)c2cc(-c3ccc(F)cc3)no2)CC1
 : 4%, -13%, -2.9%, .
- NC(=O)c1ccccc1OCc1nnc(-c2ccccc2Br)o1
 : -2%, -50%, -0.5%, .
- C/C(=N\OCC(=O)OC(C)C(=O)Nc1ccc(C(N)=O)cc1)c1ccc2c(c1)OCO2 (stereo unspecified)
 : -3%, 1%, ?, .
- O=C1CC(c2ccc(F)cc2)CC(O)=C1C=NCCN1CCNCC1 (stereo unspecified)
 : 2%, ., ?, .
- CCN(CC(=O)Nc1ccc(OC)cc1)C(=O)CCS(=O)(=O)c1ccc(C)cc1
 : -2%, 1%, -0.1%, .
- Nc1ncnc(Sc2ccccc2)c1[N+](=O)[O-]
 : -3%, 15%, 0.5%, 0

Entries of single compounds from above. Order of values: Rango dissoc inh | miR-21 FLuc | Rango-impB inh | GLA inh pH 4.5
O=C(c1ccco1)N1CCN(C(=O)c2cc(-c3ccc(F)cc3)no2)CC1 in the list: 4% | -13% | -2.9% | .
O=C1CC(c2ccc(F)cc2)CC(O)=C1C=NCCN1CCNCC1 (stereo unspecified) in the list: 2% | . | ? | .
CC(C)OC(=O)c1c(NC(=O)c2cnn3c2NC(c2ccccc2)CC3C(F)(F)F)sc2c1CCCC2 (stereo unspecified) in the list: -5% | -5% | 0.0% | 5
COc1ccc(/C=C/C(=O)O/N=C(\N)c2ccccc2)cc1OC in the list: 6% | -71% | 4.2% | 4

Other compounds.
Under each structure: Rango dissoc inh, miR-21 FLuc, Rango-impB inh, GLA inh pH 4.5
- COc1cc(C(=O)OCC(=O)NC2CCS(=O)(=O)C2)c([N+](=O)[O-])cc1OC (stereo unspecified)
 : -4%, 0%, 4.0%, -5
- CCN(CC)c1ccc2c(C)c(CN3CCOCC3)c(=O)oc2c1
 : ?, -11%, ?, 17
- CC1CCCC(C)N1C(=O)Cn1c(SCC(=O)NCc2ccc3c(c2)OCO3)nc2ccccc21 (stereo unspecified)
 : 16%, -2%, -0.7%, 1
- CC/C(=N\NC(=O)C1CCCC1)c1ccc(Br)cc1
 : -9%, -7%, -0.4%, .
- N#Cc1ccc(CN2CCN(C(=O)CNS(=O)(=O)c3ccc4c(c3)OCCCO4)CC2)cc1
 : 24%, ., 1.8%, .
- Cc1csc2nc(CSc3nc4ccccc4o3)c(Br)n12
 : 9%, -74%, -4.6%, -1
- Cc1c(NC(=O)c2cccs2)cccc1NC(=O)c1cccs1
 : -1%, 4%, 2.5%, .
- Cn1cncc1C#Cc1ccc2cc(C(C)(C)O)oc(=O)c2c1
 : -11%, ., 0.0%, .
- CCOC(=O)c1ccc(NC(=O)CN2C(=O)NC3(CCCCCCC3)C2=O)cc1
 : 21%, ., -1.7%, .
- N#Cc1nc(-c2ccccc2)oc1N1CCC(C(N)=O)CC1
 : 11%, -8%, 2.5%, .
- COc1cccc(N2CCN(c3nc(C)cc(=O)[nH]3)CC2)c1
 : 2%, 7%, 1.1%, .
- COc1ccccc1CNC(=O)c1cnc2sccn2c1=O
 : -5%, 4%, 0.3%, 8
- COCCN(C(=O)COC(=O)CCc1c[nH]c2ccccc12)c1c(N)n(Cc2ccccc2)c(=O)[nH]c1=O
 : 17%, ., 1.0%, .
- CCCCC(=O)N1CCCC(C(=O)OCC)C1 (stereo unspecified)
 : 1%, -3%, -5.9%, 2
- CN1CCN(CC(=O)Nc2nc3ccccc3s2)CC1
 : -8%, -21%, -0.2%, .
- CCC1Nc2ncnc(N3CCOCC3)c2N(Cc2ccc(Br)cc2)C1=O (stereo unspecified)
 : -11%, ., -3.7%, .
- O=C(O)c1cccc(NC(=O)c2cccc(S(=O)(=O)N3CCc4ccccc4C3)c2)c1
 : -17%, -2%, -3.3%, -25
- Cc1ccc(-c2noc(-c3ccno3)n2)cc1
 : -11%, -47%, -1.4%, -6
- CN(C(=O)c1cccc(NC(=O)Cc2ccc(NC(=O)C3CCCN(C(=O)c4ccccc4)C3)cc2)c1)C1CCCC1 (stereo unspecified)
 : 9%, ., 0.1%, .
- O=C(NNc1nc(-c2ccccc2)c2cc(Br)ccc2n1)c1ccc(S(=O)(=O)N2CCOCC2)cc1
 : 12%, 2%, 7.7%, -5
- CCN1C(=O)N(CC)c2cccc3cccc1c23
 : -4%, -15%, 1.5%, .
- Cc1ncc(CO)c(/C=N/NC(=O)c2cc(Br)ccc2O)c1O
 : ?, 1%, ?, 3
- CCOc1ccc2nc(SCC(=O)Nc3cc(C)on3)c(C)cc2c1
 : 10%, 7%, ?, .
- O=C(Nc1cccc(Cl)c1)c1ccc(-n2cncn2)c([N+](=O)[O-])c1
 : -3%, 8%, 2.1%, -5
- CCN(c1ccccc1)S(=O)(=O)c1ccc2[nH]cc(C(=O)NCCOC)c(=O)c2c1
 : -7%, 4%, 1.6%, -1
- CCOP(=O)(OCC)C(NC(=O)Nc1c(C)cc(C)cc1C)c1ccccc1 (stereo unspecified)
 : -2%, 1%, 3.1%, -2
- O=C(Cn1nc(-c2ccccc2)c2ccccc2c1=O)NCCO
 : -7%, -1%, -2.4%, .
- Cc1n[nH]c(=S)n1-c1cccc(Cl)c1
 : 2%, -2%, 3.5%, -4
- O=C(OCC(=O)N1CCOCC1)c1ccc[nH]c1=O
 : -8%, -1%, 1.5%, 6
- COc1ccc(C(=O)c2c[nH]cc2-c2ccccc2)cc1
 : -4%, -17%, -0.5%, -3
- CCOC(=O)CSc1nc2sc(C)c(C)c2c(=O)[nH]1
 : -11%, -5%, 0.3%, 0
- Cc1ccc(S(=O)(=O)Cc2nc3ccccc3c(=O)[nH]2)cc1
 : 0%, -3%, 0.7%, 5
- Cc1ccc(/C=C/C(=O)c2ccccc(=O)c2O)cc1C
 : 8.2µM*, ?, ?, -11
- Cc1cc(C)n(C2CC(=O)N(c3ccc(Cl)c(Cl)c3)C2=O)n1 (stereo unspecified)
 : 13%, -3%, 0.6%, -4
- COc1ccc(N2CC(C(=O)Nc3cc(C)ccn3)CC2=O)cc1 (stereo unspecified)
 : -5%, 10%, -2.3%, 10
- Cc1nc2ccc(Br)cc2c2c1CC(CO)O2 (stereo unspecified)
 : -9%, -1%, 2.3%, .
- CCCN1C(=O)c2ccc(C(=O)NCc3ccco3)cc2C1=O
 : 5%, -3%, -0.3%, -5

Assay outcomes deposited in PubChem by National Center for Advancing Translational Sciences (NCATS).

An excerpt; count on the stated rates, not on these rows.
